# Screens deposited in PubChem BioAssay by ICCB-Longwood Screening Facility, Harvard Medical School.
# HCMV NEC inh – inhibitors of HCMV UL50-UL53 interaction, biochemical, HTRF; AID 1918969, 2023; actives 0.15% (n = 190,000); normalized percent inhibition; inhibition, % (concentration not given with the values);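 active = both replicates at 50% or more, plus weaker picks with an unusually low signal ratio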;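 note: stock transfer was 100 nL into about 20 µL; 0% = negative control wells and 100% = wells with untagged competitor protein; inactives centre near -12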
# Sa growth inh – S. aureus growth inhibition at 42 and 30 °C, primary screen, LtaS inhibitor project, RN4220, two temperatures. OD600, 20 h, 42 °C; active compounds read low. relative growth, % (test concentration not listed). actives 0.53% (n = 170,000). AID 720641, 2013;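 active = growth at 42 °C up to 50% and 20 or more points under that at 30 °C, or under 10% at both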;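 note: 300 nL library stock went into each well; scaled to the means of positive and negative controls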
# GIV-Gai inh – inhibitors of GIV peptide binding to Galpha-i3, primary screen, biochemical, fluorescence polarization, FITC-GIV GBA peptide, rat Galphai3. actives 0.42% (n = 210,000). percent of control (FP), % (test concentration not listed). AID 1224905, 2016. 90 min; active compounds read low; scaled: aluminum fluoride 0%, vehicle 100%. Guanine nucleotide-binding protein G(i) subunit alpha-3 (Rattus norvegicus), P08753;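 active = replicate mean at 85% of control or lower, very high polarization wells dropped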;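 note: lower values mean more displacement of the GIV peptide from Galpha-i3; wells of about 15 µL received 100 nL stock; the first replicate is given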
# Target sequence (P08753 whole entry, looked up): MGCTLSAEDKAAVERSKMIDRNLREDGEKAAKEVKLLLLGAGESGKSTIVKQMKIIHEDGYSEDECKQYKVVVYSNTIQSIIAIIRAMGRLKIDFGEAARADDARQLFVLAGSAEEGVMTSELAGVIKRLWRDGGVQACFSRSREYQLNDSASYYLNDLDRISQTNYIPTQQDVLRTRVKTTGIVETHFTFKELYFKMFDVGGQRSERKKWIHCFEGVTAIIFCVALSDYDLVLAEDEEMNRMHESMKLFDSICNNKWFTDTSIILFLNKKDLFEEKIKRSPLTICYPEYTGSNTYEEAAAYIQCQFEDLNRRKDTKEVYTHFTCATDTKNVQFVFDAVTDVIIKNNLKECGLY
# Sa growth inh second temp – further read-out of Sa growth inh, marked with its call; relative growth, %; measured here: growth at 30 °C;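 optical density after 20 h as mean of two plates; 100% = untreated growth and lower means inhibition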
# * = called active by the depositor; / = not tested or not shown; & = joins results of further samples.
SMILES,HCMV NEC inh,Sa growth inh,Sa growth inh second temp,GIV-Gai inh
O=C(CSc1ccccc1)N1CCN(C(=O)C2CCCO2)CC1 (centres undefined),1,109,102,103
CCCC(=O)NC(=S)c1sc(N2CCCC2)nc1-c1cccs1,-44,93,79,/
COc1ccc(CNC(=O)c2cnc3scc(C)n3c2=O)cc1,/,81,81,104
CCNc1nc(CN2CCOCC2)nc2sc3c(c12)CCCC3,-13,90,90,/
Cc1cc(N2CCC(C)CC2)nc2ccc(NC(=O)CCC(=O)N3CCCC(C)C3)cc12 (centres undefined),-26,/,/,104
COC(=O)c1sccc1NC(=O)N1Cc2c(sc3c2CCN(C)C3)-n2cccc2C1c1ccc(OC)cc1 (centres undefined),-4,/,/,107
O=C(CCN1CCC(c2cccs2)=N1)c1cccs1,-42,84,86,106
Cc1ccc(O)c(C(=O)c2cnc3onc(-c4ccc(F)cc4)c3c2)c1,-28,94,76,/
CCC(=O)N1CCc2cc(Br)cc(S(=O)(=O)NCc3ccccc3)c21,1,93,91,102
CC1CCCCC1NC(=O)CN(C)S(=O)(=O)c1ccc2c(c1)c(=O)n(C)c(=O)n2C (centres undefined),-28,91,92,104
COCC(=O)Nc1ccc2nc3c(c(Nc4ccc(OC)c(OC)c4)c2c1)CCCC3,-64,/,/,102
O=C1NC(=O)N(C2CCCCC2)C(=O)/C1=C/c1ccc(Br)cc1,11,87,99,100
COc1cc(OC)c(N(C)C(=O)C2CCCN(c3ncnc4c3nc3n4CCCCC3)C2)cc1Cl (centres undefined),/,103,72,103
CN(CC(=O)O)S(=O)(=O)c1ccc(Cl)cc1,-12,93,91,/
COc1ccc(-n2c(O)cnc2Nc2nc(C)cc(C)n2)cc1OC,-12,93,93,98
COc1ccc(-n2c(SCC(N)=O)nc3sc4c(c3c2=O)CCC4)cc1,-5,/,/,108
CCN(c1cccc(C)c1)S(=O)(=O)c1cc2c(cc1C)n(C)c(=O)c(=O)n2C,/,119,88,105
Cc1ccc(C)c(Cn2c3ccccc3c3cnn(CC(=O)NC4CCC(C)CC4)c(=O)c32)c1 (centres undefined),-4,106,94,104
CCC(c1nnc(SCC(=O)Nc2nc(-c3ccc(OC)cc3)cs2)o1)N(C)C (centres undefined),-48,100,94,/
O=C(NC1CCCCC1)N1CCc2cc(S(=O)(=O)Nc3ccc4c(c3)OCO4)ccc21,-19,/,/,96
CC1CN(C2CC(O)C(CO)O2)C(=O)NC1=O (centres undefined),-11,100,82,/
Cc1[nH]c2ccccc2c1C1(O)C(=O)N(CCc2ccccc2)c2ccc(Br)cc21 (centres undefined),/,51,39,100
C=CCN(CC=C)c1cc(C(C)C)nc2nc(-c3cccnc3)nn12,2,/,/,107
CCOc1ccc2[nH]c(=O)c(CN(Cc3ccccc3OC)C(=O)N3CCCC3)cc2c1,-21,82,97,98
Cc1ccccc1OCCn1c(CCNC(=O)C2CCCCC2)nc2ccccc21,-11,103,75,102

# Entries of single compounds, quoted from the list. Values in the order: HCMV NEC inh	Sa growth inh	Sa growth inh second temp	GIV-Gai inh
# Results for O=C1NC(=O)N(C2CCCCC2)C(=O)/C1=C/c1ccc(Br)cc1 = 11	87	99	100
# Results for C=CCN(CC=C)c1cc(C(C)C)nc2nc(-c3cccnc3)nn12 = 2	/	/	107
# Results for O=C(CCN1CCC(c2cccs2)=N1)c1cccs1 = -42	84	86	106
# Results for COCC(=O)Nc1ccc2nc3c(c(Nc4ccc(OC)c(OC)c4)c2c1)CCCC3 = -64	/	/	102

# Next section
SMILES,HCMV NEC inh,Sa growth inh,Sa growth inh second temp,GIV-Gai inh
CC[C@@H]1Cc2cc(O)ccc2C2=C1c1ccc(O)cc1C[C@H]2CC,-12,/,/,105
CCc1ccc(OCc2cc(=O)n3cc(C)sc3n2)cc1,2,98,87,104
Cc1ccc(S(=O)(=O)N2CC3CCC2C3)cc1 (centres undefined),/,99,84,102
O=C(NCCO)c1nc(-c2ccccc2)n(-c2ccccc2Cl)n1,4,/,/,100
COc1ccccc1N=c1scc(-c2ccco2)n1/N=C/c1ccco1,-43,82,68,/
CNC(=O)COC(=O)c1ccc(Cl)c(Cl)c1,-7,129,86,/
CCN(c1ccc(C)c(C)c1)S(=O)(=O)c1ccc2c(c1)oc(=O)n2C,/,125,78,108
CCCNC(=O)c1cc(-c2ccc(OC)cc2)n(CCCOC)c1C,-2,85,91,105
COc1cc2c(cc1OC)C(=NCCC(=O)O)NC(C)(C)C2,/,120,85,100
CN(C(=O)CC#N)c1ccc(F)cc1F,-2,111,99,108
Cc1ccc(-c2ccc(CCC(=O)O)n2-c2ccc(C)c(Cl)c2)cc1,-24,104,84,107
Cc1nc(SCC(=O)c2ccc(NS(C)(=O)=O)cc2)n(C2CCCCC2)c1C,-41,115,96,/
COc1ccc(OC)c(NC(=O)CCn2cnnn2)c1,-30,102,87,105
COc1ccc2c(OC(C)=O)coc2c1,-14,101,80,100
COc1ccc(N=Cc2ccc(C)o2)cc1,-13,96,94,110
O=S(=O)(Nc1ccccc1)c1ccc2c(c1)CCO2,2,106,109,100
Cc1ccc(CSc2nnc(-c3ccncc3)n2CC2CCCO2)cc1 (centres undefined),-4,113,101,102
COc1cccc(CNC(=O)C2CCCN2c2nnc(N3CCCCC3=O)s2)c1 (centres undefined),-12,/,/,87
CC(C)CN1C(=O)c2ccc(C(=O)Nc3ccc(F)cc3)cc2C1=O,-7,104,105,101
Cc1n[nH]c(C)c1NC(=O)CN(C)c1nc(-c2cccnc2)nc2ccccc12,2,94,100,/
O=C(Nc1ccc(F)c(Cl)c1)c1cc(S(=O)(=O)NCc2ccc3c(c2)OCO3)ccc1F,/,92,109,100
O=C(/C=C/c1ccc(Cl)cc1Cl)NCc1cccnc1,-44,123,84,/
c1ccc(CCn2c(CSc3nc4ccccc4o3)nc3ccccc32)cc1,-7,84,77,/
CC(C)(C)NC(=O)NCC(c1ccco1)N1CCc2ccccc2C1 (centres undefined),-19,110,88,102
CCN(CC)S(=O)(=O)c1ccc(SC)cc1,1,92,103,102

# No new results follow: an excerpt of the list.
SMILES,HCMV NEC inh,Sa growth inh,Sa growth inh second temp,GIV-Gai inh
CC[C@@H]1Cc2cc(O)ccc2C2=C1c1ccc(O)cc1C[C@H]2CC,-12,/,/,105
CCc1ccc(OCc2cc(=O)n3cc(C)sc3n2)cc1,2,98,87,104
Cc1ccc(S(=O)(=O)N2CC3CCC2C3)cc1 (centres undefined),/,99,84,102
O=C(NCCO)c1nc(-c2ccccc2)n(-c2ccccc2Cl)n1,4,/,/,100
COc1ccccc1N=c1scc(-c2ccco2)n1/N=C/c1ccco1,-43,82,68,/

# Further compounds follow.
SMILES,HCMV NEC inh,Sa growth inh,Sa growth inh second temp,GIV-Gai inh
Cc1ccc(NCc2cccn2-c2nnc(N3CCCCC3)s2)cc1,-26,95,79,106
OCCOc1ccc(OCCO)cc1,0,116,54,99
CC(C)NC(=O)CN1Cc2ccccc2C1=O,-17,104,94,103
CCc1nc(-c2cc(S(=O)(=O)N3CCN(c4ccc(OC)cc4)CC3)ccc2OC)no1,-9,103,87,98
Cc1ccccc1Cn1c(=O)n(CCCCC(=O)NCc2ccc3c(c2)OCO3)c(=O)c2ccccc21,-21,104,88,104
CCc1noc(-c2ccc(N3CCC(C)CC3)c([N+](=O)[O-])c2)n1,-21,104,98,99
O=C(O)c1cc(NC(=O)c2ccc(N3C(=O)C4C5C=CC(C5)C4C3=O)cc2)cc(C(=O)O)c1 (centres undefined),17,/,/,97
NC(=O)C1CCCN(C(=O)c2ccc3c(c2)NC(=O)CS3)C1 (centres undefined),-26,103,91,/
CC1(C)CC(=O)C(C=NCC2CCN(C(=O)c3ccccc3)CC2)=C(O)C1,-18,89,84,105
CCCOc1ccc(C(=O)Nc2cc3c(cc2N2CCOCC2)n(C)c(=O)n3C)cc1,16,98,105,105
CN(C)c1ccc(NC(=O)c2nc(-c3ccccc3)n(-c3ccc(F)cc3)n2)cc1,-12,/,/,103
COc1ccc(Br)cc1C(=O)Nc1ccc(-c2nnc(-c3ccco3)o2)cc1,-10,117,98,101
COc1ccc(OCc2nc3ccccc3n2Cc2ccccc2Cl)cc1,-42,98,91,109
CCCCN(C)C(=O)CCC(=O)NNc1nc2ccccc2c2nc(C)nn12,-20,100,89,95
Cc1ccc(NC2CC(C)Nc3cc(C)ccc32)cc1 (centres undefined),-16,111,88,/
CN1CCc2c(sc3c2C(=O)NC(/C=C/c2ccco2)N3)C1 (centres undefined),/,100,84,120
Cc1c(C)n(Cc2ccc(Cl)cc2)c2ccc(C(=O)NCc3ccco3)cc12,4,101,96,111
CCc1ccc(N(CC)C(=O)c2sc3nc4n(c(=O)c3c2C)CCCC4)cc1,-22,105,84,100
CN(c1ccc(Cl)cc1)c1cc(=O)n(C)c2ccccc12,/,79,66,99
Cc1ccc(CCNC(=O)c2cnc3ccc(S(=O)(=O)N4CCOCC4)cc3c2Cl)cc1,5,97,82,107&108
CCc1nn(CCCC(=O)NCc2ccccc2OC)c(=O)c2cc3occc3n12,-5,105,90,102
Cc1ccc(NC(=O)C2CCCN2S(=O)(=O)c2cccc3nsnc23)c(Br)c1 (centres undefined),-72,101,92,105
Cc1csc(SC(C)C(=O)Nc2ccc(S(=O)(=O)N3CCCC3)cc2)n1 (centres undefined),1,93,96,/
Cc1cccc(C)c1NC(=O)c1cc(S(=O)(=O)N2CCCc3ccccc32)ccc1F,/,91,104,103
CCn1c2c(c3ccc(OC)cc31)CCCC2=O,/,113,63,107

# Given with each value named: part of the list above.
CCc1nc(-c2cc(S(=O)(=O)N3CCN(c4ccc(OC)cc4)CC3)ccc2OC)no1
  HCMV NEC inh: -9
  Sa growth inh: 103
  Sa growth inh second temp: 87
  GIV-Gai inh: 98
Cc1ccccc1Cn1c(=O)n(CCCCC(=O)NCc2ccc3c(c2)OCO3)c(=O)c2ccccc21
  HCMV NEC inh: -21
  Sa growth inh: 104
  Sa growth inh second temp: 88
  GIV-Gai inh: 104

# (cont.)
SMILES,HCMV NEC inh,Sa growth inh,Sa growth inh second temp,GIV-Gai inh
O=C(Cc1nc2ccccc2n1C(F)F)c1ccccc1,-21,109,95,/
Cc1ccc(NC(=O)C(Cc2ccccc2)NS(=O)(=O)c2cccc3nsnc23)c(C)c1 (centres undefined),-61,86,104,109
O=C(NCc1cccs1)c1cccnc1SCCS(=O)(=O)c1ccc(C(F)(F)F)cn1,-14,81,86,98
COc1ccc(N2C(=O)c3ccccc3NC23CC2CC=CC23)cc1 (centres undefined),-28,95,90,/
Cc1nc2ccccc2c2oc(C(=O)NC3CCC(C)CC3)cc12 (centres undefined),-2,105,86,100
O=C(COc1ccc(F)cc1)Nc1ccc2nc(SCCOc3ccccc3)sc2c1,-18,113,92,100
N#Cc1cc(C(=O)c2cc(F)ccc2O)cn(C2CC2)c1=O,-21,88,95,/
O=C(c1ccc(F)c(F)c1)N1CCc2ccccc2C1,-5,105,74,103
COc1ccc(N2C(=O)CS(=O)(=O)C23C(=O)N(Cc2ccc(F)cc2)c2ccc(C)cc23)cc1 (centres undefined),/,100,99,103
CCOC(=O)C1CCCN(C(=O)C23CC4CC(CC(C4)C2)C3)C1 (centres undefined),-20,129,85,/
NCCNCC1COC2(CCCCCCCCCCC2)O1 (centres undefined),-27,93,35,105
COc1cccc(NC(=O)c2cc(CN3CCOCC3)on2)c1,/,84,95,104
C=CCc1c(C)nc2nc(SCC(=O)Nc3ccccc3CC)nn2c1C,/,123,91,104
CCOC(=O)c1noc2nc(C)n(Cc3cc(=O)n4ccccc4n3)c(=O)c12,-20,/,/,106
O=C(Nc1nc2ccc(S(=O)(=O)N3CCCC3)cc2s1)c1cccc(F)c1,/,84,84,98
O=S(=O)(c1ccc(Br)cc1)c1nc(-c2cccs2)oc1SCc1ccc(F)cc1,-12,88,91,104
Cc1cccc(C)c1-n1ncc(C(=O)Nc2ccc3c(c2)OCCO3)c1C1CCN(C(=O)OC(C)(C)C)CC1,/,92,86,103
COc1ccc(S(=O)(=O)N2CC=C(c3c(C)n(Cc4ccc(F)cc4)c4ccccc34)CC2)cc1OC,-35,/,/,105
Cc1sc2ncnc(Nc3ccccc3)c2c1C,-8,98,90,/
COc1ccc2c(c1)C(C)(CC#N)C(=O)N2C (centres undefined),/,105,94,102
CCOC(=O)Nc1ccc2c(c1)N(CCCN(C)C)c1ccccc1CC2,5,97,98,105
CNCc1nc2ccc(Cl)cc2[nH]1,-13,81,80,104
CCOC(=O)COc1ccc2c(c1)C(=O)CC(C)(C)O2,/,107,85,105
Cc1onc(-c2ccccc2Cl)c1C(=O)Oc1cc(F)cc(F)c1,/,97,81,103
CN(C)C(=O)c1ccc2c(c1)nc(CN1CCN(S(=O)(=O)N(C)C)CC1)n2C,-20,/,/,103
CCOc1cc(CNS(=O)(=O)c2ccc3c(c2)C(C)(C)C(=O)N3)cc(OCC)c1OCC,/,81,85,100
CC(C)(C)NC(=O)NNc1nc2ccc(Cl)cc2s1,15,99,102,103
C=CCn1c(CNC(C)=O)nc2ccccc21,14&-1,91,85,102

# An unsorted share of the library; any-hit rate near 0.82%.
